From PubChem
Autofluor counter: compound fluorescence in toxin protease inhibitor counterscreen; compound autofluorescence counterscreen, microsphere flow cytometry; stronger effect = higher value; fluorescence intensity (concentration not given with the values); 360,000 tested, 3.1% active; AID 624483;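 active = at least 3 SD above the mean of all compounds, about 16000 in these data; inconclusive = too few beads counted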;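 note: 100 nL of 1 mM stock went into each well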
PrP UTR inh: inhibition of PrP 5' UTR reporter expression; cell-based PrP 5' UTR mRNA reporter, plate reader; inhibition, % (test concentration not listed); 340,000 tested, 0.35% active;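 active = every replicate at 50% or more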;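 note: 0 = median of the neutral control wells; tested in H4 reporter cells; numbers are from one replicate; inactives centre near -14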
BJeLR viability: MLPCN primary cell-based screen for lethality selective to Ras in HRASV12 cells. BJeLR (HRASV12) viability, CellTiter-Glo ATP luminescence, 48 h; reference of the scale not given here. inhibition, % (concentration not given with the values). 300,000 tested, 0.17% active;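 active = replicate mean above 50%; inconclusive = above 50% but judged a plate artefact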;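 note: 50 nL library stock added to about 25 µL; numbers are from one replicate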
Mtb hypoxia rep: PubChem AID 1159583 | fluorescence inhibition, % (no concentration beside the values) | M. tuberculosis hypoxia-regulated fluorescent reporter, fluorescence | 300,000 tested, 0.1% active;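 active = 35 to 45% if threefold the growth effect, above 45% if 1.5-fold the growth effect; inactive = the rest, general growth blockers included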;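 note: wells of about 50 µL received 100 nL stock; 0% = vehicle wells and 100% = reference inhibitor wells; whole bacteria with a GFP reporter of the hypoxia response; strong numbers were not always called active; many hits fall short of the cut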
Sa ugtP lethal: growth inhibition of ugtP-null S. aureus, primary screen, RN4220 ugtP deletion, OD600; 16 h; some inactives read as strong as hits; growth inhibition, % (test concentration not listed); 330,000 tested, 0.54% active; AID 1259309, 2017;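 active = z-score under -3 and OD600 up to 0.15 on both plates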;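 note: plate controls were untreated wells for no effect and antibiotic for full effect; wells of about 80 µL received 100 nL stock; the first replicate is given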
Sa RN4220 lethal: growth inhibition of S. aureus RN4220, primary screen, OD600 | inhibition, % (concentration not given with the values) | 330,000 tested, 0.33% active | 16 h | AID 1259311, 2017;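 active = z-score of -3 or lower and OD600 up to 0.18 on both plates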;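 note: plate controls were untreated cells for no effect and reference antibiotic for full effect; stock transfer was 100 nL into about 80 µL; one replicate is shown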
Mtb hypoxia rep growth: further read-out of Mtb hypoxia rep, marked with its call; growth inhibition, %; measured here: M. tuberculosis growth (absorbance);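 0% = vehicle and 100% = reference antibiotic; read after six days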
Numbers without * were called inactive; ? = inconclusive; . = not tested or not shown; & = joins results of further samples.

SMILES	Autofluor counter	PrP UTR inh	BJeLR viability	Mtb hypoxia rep	Mtb hypoxia rep growth	Sa ugtP lethal	Sa RN4220 lethal
CCN(CC(=O)Nc1ccc(NC(C)=O)cc1)C(=O)c1cccc(S(=O)(=O)N2CCc3ccccc3C2)c1	6335	-21	5	-12	-4	0	1.1
Cc1ccc(-n2c(SCC(=O)NCC3CCCO3)nc3ccccc3c2=O)cc1C (stereo not drawn)	5435	-21	3	7	-4	1	-0.4
O=C(Nc1ccc2c(c1)nc1n2CCN(C2CCCCC2)C1)c1ccco1	4627	-15	.	13	0	0	1.0
O=C(CCn1c(=O)sc2ccccc21)Nc1cccnc1	7899	12	-11	5	-3	-2	1.0
COCCNC(=O)CN1C(=O)NC2(CCCCCC2)C1=O	4126	-5	0	-1	8	3	2.6
O=C(NN=Cc1ccccn1)C1CC1	.	.	.	3	4	0	3.1
CCCCn1c(O)c(C=NCCCN(C)C)c(=O)[nH]c1=O	3043	-3	-5	-5	5	3	15
CC(=O)Nc1ccc(-n2nnnc2SCC(=O)NCc2cccs2)cc1	4220	-7	6	-8	1	6	5.7
Cc1nc(SCC(=O)O)c2oc3ccccc3c2n1	4287	-24	3	8	0	1	2.5
CCCn1c(C(C)NC(=O)c2ccccc2)nc2ccccc21 (stereo not drawn)	9572	-14	0	10	6	6	6.2
O=C(COc1cccc2cccnc12)NNC(=S)Nc1ccccc1	.	.	6	.	.	9	7.5
CCOCc1nnc(NC(=O)c2c(-c3ccccc3)noc2C)s1	5754	-20	-10	-2	6	3	-3.1
CCOC(=O)C(CCCOc1cccc(CC)c1)C(=O)OCC	3745	2	4	11	0	28	4.2
Cc1nnsc1-c1c(C(=O)Oc2ccccc2)c(C)nn1-c1ccccc1	4259	.	7	4	6	14	0.6
Cn1c(O)c(C=NC2CCCCC2)c(=O)[nH]c1=S	2272	53*	22	1	15	-4	3.3
COc1ccc(/C=N/n2cnnc2SCCO)cc1OC	3864	-20	3	.	.	.	.
O=C(CN1CCOCC1)Nc1ccc([N+](=O)[O-])cc1	5461	-12	3	-4	-1	1	-0.3
O=c1c2oc3ccccc3c2ncn1Cc1ccccc1F	3850	-13	4	10	15	-6	8.1
CCN(CCC#N)c1ccc(/C=N/Nc2nc(C)cc(=O)[nH]2)c(C)c1	2559	-29	4	.	.	.	.
COc1cccc(C(=O)N=c2sc3cc(S(C)(=O)=O)ccc3n2C)c1	4595	-80	-1	-9	-1	1	-0.4
Cc1cccc(NC(=O)/C=C/c2ccc([N+](=O)[O-])s2)c1	2160	-45	83*	19	10	29	40
COc1ccc(C2c3[nH]c4ccccc4c3CCN2Cc2cccn2-c2ncccn2)cc1C (stereo not drawn)	5573	10	-2	3	6	-13	-7.0
COc1cc([C@H]2[C@@H]3CCCC[C@]3(O)CCN2CC(=O)Nc2ccc(C)cc2C)ccc1O	3906	1	3	-4	6	-1	2.6
Cc1cc(C)n(C(=O)CCNC(=O)c2ccccc2Br)n1	3314	-5	10	15	8	2	3.4
Cc1ccc2c(cnn2C(=O)CCCC(=O)NCc2ccc(Cl)cc2)c1	4680	-18	3	-6	1	-9	0.5

(listing goes on)
SMILES	Autofluor counter	PrP UTR inh	BJeLR viability	Mtb hypoxia rep	Mtb hypoxia rep growth	Sa ugtP lethal	Sa RN4220 lethal
Cc1nnc(SCc2cccc([N+](=O)[O-])c2)[nH]c1=O	1982	-16	-4	0	4	3	4.8
Cc1c(C(c2cccs2)c2c(C)n(C)n(-c3ccccc3)c2=O)c(=O)n(-c2ccccc2)n1C	3798	-34	-11	11	2	9	2.6
CC(Oc1ccc(Cl)cc1Cl)C(=O)NC(=S)N1CCc2ccccc21 (stereo not drawn)	2049	11	-2	-8	14	98*	99*
CCc1nc(SCC(=O)NC2CCCC2)c2c(=O)n(C)c(=O)n(C)c2n1	6510	-21	0	2	1	5	3.4
COc1ccc(CNc2nc3c(c(=O)[nH]c(=O)n3C)n2Cc2ccccc2C)cc1	5380	-100	3	-6	-5	-9	4.7
Cc1ccc2c(COC(=O)C3=COCCO3)cc(=O)oc2c1	3957	10	0	3	6	-9	4.1
S=C(NC1CCCCC1)NC1CC2C=CC1C2 (stereo not drawn)	3851	7	-12	4	2	0	1.5
Cc1cc2c(cc1S(=O)(=O)NCc1ccccc1)OCC(=O)N2	6943	3	-4	3	6	1	15
Cc1ccc(C(=O)N/C(=C\c2cccs2)C(=O)NCCCN2CCOCC2)cc1	3116	4	-2	-4	-4	9	-0.3
Cc1ccc(C)c(NC(=O)CN(C)C(=O)CC2OC(=O)c3ccccc32)c1 (stereo not drawn)	2906	-9	.	9	3	12	7.9
CCCNC(=O)CSc1nccn1Cc1ccc(OC)cc1	3560	0	-5	18	2	7	2.6
CCOC(=O)C1C2COc3ccc(Br)cc3C2N2C(=O)N(c3ccc(Cl)cc3)C(=O)[C@@]12C (stereo partly drawn)	.	.	.	3	-2	-38	-1.1
CC(=O)c1ccc(OCCCC(=O)Nc2cc(S(=O)(=O)N3CCCCC3)ccc2C)cc1	.	-27	.	3	15	-1	-2.0
CCOC(=O)c1sc(Nc2ccc(F)cc2)nc1C	4906	-22	4	7	10	10	2.2
COc1ccc(C(=O)Nc2nc(C)cs2)cc1S(=O)(=O)N1CCCC1	4401	-21	15	-3	9	15	2.4
CC(=O)Oc1ccc2ccc3ccc(C(C)=O)cc3c2c1	2852	4	.	1	2	-15	-3.1
CCc1ccc(NC(=O)C(C)OC(=O)CCC(=O)c2cccs2)cc1 (stereo not drawn)	2346	-28	7	-12	-3	-2	4.1
CC(C)Cn1c(SCC(=O)Nc2cc(Cl)c(Cl)cc2Cl)nc(O)cc1=O	6194	-38	-4	1	1	2	26
N#CC(C#N)=C(Nc1ccccc1)c1ccccc1	2669	-9	-8	7	9	5	-0.7
O=C(c1ccco1)N1CCN(Cc2ccccc2Br)CC1	3641	-23	-9	-1	3	3	1.8
COc1ccc(OC)c(N(CC(=O)Nc2cccnc2)S(C)(=O)=O)c1	10769	-6	2	2	5	-3	6.7
CCCCC(=O)c1c(C)cc(C)[nH]c1=O	4087	-23	-6	11	4	5	0.0
COC(=O)CNC(=O)c1sc2ncn(CC(=O)Nc3ccc(C)c(Cl)c3)c(=O)c2c1C	2527	-22	-11	-8	-5	-5	0.1
O=C(N/N=C/c1ccsc1)c1cc(-c2ccncc2)nc2ccccc12	2605	-12	19	.	.	.	.
COc1ccc(-n2c(C)c(C(C)=O)c(C(C)=O)c2C)cc1	12629	4	6	4	0	-1	0.3

Brought forward from above: six entries, followed by the next part.
SMILES	Autofluor counter	PrP UTR inh	BJeLR viability	Mtb hypoxia rep	Mtb hypoxia rep growth	Sa ugtP lethal	Sa RN4220 lethal
O=C(c1ccco1)N1CCN(Cc2ccccc2Br)CC1	3641	-23	-9	-1	3	3	1.8
COc1ccc(OC)c(N(CC(=O)Nc2cccnc2)S(C)(=O)=O)c1	10769	-6	2	2	5	-3	6.7
CCCCC(=O)c1c(C)cc(C)[nH]c1=O	4087	-23	-6	11	4	5	0.0
COC(=O)CNC(=O)c1sc2ncn(CC(=O)Nc3ccc(C)c(Cl)c3)c(=O)c2c1C	2527	-22	-11	-8	-5	-5	0.1
O=C(N/N=C/c1ccsc1)c1cc(-c2ccncc2)nc2ccccc12	2605	-12	19	.	.	.	.
COc1ccc(-n2c(C)c(C(C)=O)c(C(C)=O)c2C)cc1	12629	4	6	4	0	-1	0.3
Cc1cc(-c2ccccc2)nc(-c2ccccc2)c1C	4414	-28	1	8	10	13	-3.7
O=C(O)c1cc2nc3c(c(C(F)(F)F)n2n1)CCc1ccccc1-3	2761	-8	5	.	.	2	0.3
Cc1oc(-c2ccccc2)cc1C(=O)Nc1cccc(/C=C\C(=O)O)c1	2498	-9	-2	-13	-1	-17	10
COc1ccc(C=NNC(=O)c2ccccc2Br)cc1COc1ccc(F)cc1	.	.	.	8	-2	3	0.3
Cc1ccc2c(c1)=C(c1ccccc1)N(O)CC(=O)N=2	2953	-6	0	11	3	0	-1.0
COC(=O)c1ccc(Nc2c([N+](=O)[O-])c(=O)oc3ccccc23)cc1	.	-26	-7	7	-2	0	3.4
CCOc1cc(C(=O)NC(=S)Nc2cccnc2)cc(OCC)c1OCC	2468	3	4	4	1	14	6.0
CCC(CO)Oc1cc(NCc2ccc(Cl)cc2Cl)c2ncn(C(C)C)c2c1 (stereo not drawn)	3008	-18	.	2	6	-22	12
Cc1ccc(OCc2nnc(SCC(=O)N3CCOCC3)n2C)cc1	11710	-20	-9	13	11	2	3.5
COc1ccc(C(=O)COC(=O)CNC(=O)c2ccccc2)cc1F	5546	-7	.	13	12	2	7.8
O=C(Nc1ccnn1C1CCN(Cc2cccc(OCCO)c2)CC1)C1CC1	?	-7	-3	1	-1	6	-0.1
COc1ccc(C2/C=C\CN(S(=O)(=O)c3ccc(-c4ccccc4)cc3)CC(=O)N2Cc2ccc(F)cc2)cc1 (stereo not drawn)	3439	-28	9	.	.	.	.
Cc1ccc(N(NC(=O)C(C)(C)O)C(=O)c2ccccc2)cc1C	2351	-26	-8	.	.	10	8.2
COC(=O)C1CC1C(NC(=O)c1ccccc1)c1ccccc1 (stereo not drawn)	.	.	.	7&-3	13&5	-1&-5	3.8&-1.5
O=C(CSc1nc2ccccc2o1)c1cc2ccccc2oc1=O	4127	-15	.	.	.	-12	1.1
O=S(=O)(c1ccc(NC(=S)Nc2ccc(OC(F)F)cc2)cc1)N1CCOCC1	6692	-17	-11	8	4	-7	5.5
O=C(CN1CCCCCC1)Nc1nc2ccccc2s1	3994	-23	.	16	7	2	6.2
O=C(COc1ccc(Cl)cc1)Nc1cccc(S(=O)(=O)NCc2ccco2)c1	3867	-9	.	-3	6	-12	-3.4
COc1cccc(CC(NC(C)=O)C(=O)NC2CCN(C(=O)C3CC3)CC2)c1OC (stereo not drawn)	4978	-2	0	0	-9	4	8.3
Cc1ccc(S(=O)(=O)N=Cc2c(O)ccc3ccccc23)cc1	.	.	.	7	-1	0	1.6
NC(=O)Cc1ccc2sc(-c3ccccc3)nc2c1	2611	-94	2	5	-3	5	7.8
O=C(COc1cc(F)ccc1[N+](=O)[O-])NCC1CCCO1 (stereo not drawn)	4200	-8	.	10	5	2	3.8
O=C(Sc1ccccc1)c1cccc(Cn2cc(C(F)(F)F)ccc2=O)c1	5456	-21	0	-13	-4	8	1.7
COc1ccc(Cl)cc1S(=O)(=O)N1CCC(C(=O)NC2CC2)CC1	?	-6	-8	9	6	10	-2.0
Cc1ccc(CNC(=O)N2CCN(c3ccc(C)cc3)CC2)cc1	4384	16	17	-5	0	-2	-3.7

Additional compounds.
SMILES	Autofluor counter	PrP UTR inh	BJeLR viability	Mtb hypoxia rep	Mtb hypoxia rep growth	Sa ugtP lethal	Sa RN4220 lethal
O=C(Nc1cc(C(F)(F)F)ccc1-n1cncn1)c1cn2ccccc2n1	.	-23	.	2	-6	0	0.5
CCOC(=O)c1c(NC(=O)CSc2nnc(C)s2)sc2c1CCC(CC)C2 (stereo not drawn)	3801	-12	-1	4	2	-4	-10
O=C(Nc1ccc(Cl)cc1)c1ccc(-c2ccccn2)s1	4226	-137	5	5	-7	7	3.5
Cc1ccc(/C(O)=C2\C(=O)C(=O)N(CC(C)O)C2c2ccccn2)cc1 (stereo not drawn)	4426	-20	-4	0	8	-71	0.8
C=CCOc1ccc(-c2nc3c(c(=O)[nH]c(=O)n3CCC)n2CCCC)cc1	3784	-8	0	11	3	5	4.5
COc1cnc(-c2ccccn2)nc1Oc1ccccc1	4736	-1	4	-6	-1	-4	8.6
CCCOc1ccc(/C(O)=C2/C(=O)C(=O)N(CCCn3ccnc3)C2c2ccc(C)o2)cc1 (stereo not drawn)	3367	-23	12	17	12	6	3.6
COc1ccc(NC(=O)C#Cc2ccccc2)cc1OC	3433	-3	3	-2	18	-2	5.9
CCN(CC)S(=O)(=O)c1ccc(OC)c(NC(=O)COc2ccc3c(C)cc(=O)oc3c2)c1	2249	-78	6	-2	3	7	4.3
COc1ccc(S(=O)(=O)N2CCN(C(=O)CCCN3C(=O)NC4(CCCC4)C3=O)CC2)cc1	6332	-11	.	2	4	3	4.7
Clc1ccc(C2NCCc3sccc32)cc1 (stereo not drawn)	2038	-8	-1	4	-2	1	-1.6
CC1(C)C2CCC1(C)C(OC(=O)C[n+]1ccccc1N)C2 (stereo not drawn)	4703	-11	5	11	2	7	3.5
